# Screens deposited in PubChem by several laboratories.
# Calb FLC = affects C. albicans growth with fluconazole; C. albicans CaCi-2 (fluconazole-resistant clinical isolate) + fluconazole, Alamar Blue growth, 48 h; AID 1979; 0.57% of 300,000 active; growth inhibition, % (test concentration not listed);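 active means most replicates above 75%; inconclusive means exactly half above 75%; inactive means most below 75%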;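 further: all wells also contain fluconazole at 8 µg/ml as a sub-toxic cotreatment; 0% = median of DMSO wells and 100% = median of geldanamycin control wells; wells of about 8 µL received 7.5 nL stock; the first replicate is given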
# T cruzi repl = T. cruzi replication inhibition; 1.4% of 300,000 active; T. cruzi beta-gal in NIH3T3, luminescence, 90 h; inhibition, % (no concentration beside the values);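 active means mean inhibition across valid replicates above about 55%, limit read from the data; inconclusive means mean below that limit but half or more replicates reach it; inactive means mean below it, under half of replicates reach it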;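 further: signal also drops with host cell toxicity which is not excluded here; 0% = plate median of DMSO wells and 100% = zero luminescence signal; higher percent means less beta-gal luminescence so fewer parasites; stock transfer was 50 nL into about 50 µL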
# RanGTP-Impb inh = inhibitors of RanGTP-importin-beta interaction, primary screen, biochemical, FRET, CFP-Ran, YFP-importin-beta, homogeneous | cell-free CFP-Ran/YFP-importin-beta FRET ratio | inhibition, % (test concentration not listed) | 1.1% of 300,000 active | AID 2216;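 active means most replicates above 15%; inconclusive means exactly half above 15%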;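 further: 0% = DMSO wells and 100% = Ran loaded with GDP instead of GTP; wells of about 40 µL received 100 nL stock; the first replicate is given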
# Beta cell apopt = blocks beta cell apoptosis | INS-1E cytokine-induced death, ATP luminescence, 48 h; percent of positive-control rescue, neutral wells zero | protection from apoptosis, % (test concentration not listed) | 0.8% of 300,000 active;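 active means all replicates at 75% or more, or half of them and the mean; inconclusive means half reach 75% but not the mean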;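 further: 0% = cytokine-treated negative control wells and 100% = positive control rescue; higher means more ATP so stronger rescue from cytokine killing; wells of about 40 µL received 100 nL stock; the first replicate is given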
# A1 inh = inhibitors of the anti-apoptotic protein A1, read as caspase activation. caspase activation, % (test concentration not listed). 0.066% of 330,000 active. AID 2462. MEF A1-2A-BIM cells, Caspase-Glo 3/7 luminescence, 3 h; percent of clofoctol response, vehicle zero;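 active means over half of replicate activation scores above 10%, or exactly half above 10 with the replicate mean above 10; inconclusive means replicate mean below 10 yet half the replicates above 10; inactive means over half of replicates below 10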;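 further: wells of about 30 µL received 50 nL stock; many hits fall short of the cut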
# Vif A3G = inhibitors of Vif binding to APOBEC3G peptide, primary screen, biochemical, TR-FRET, GST-Vif 1-94, biotin-A3G peptide, dose response retest (AID 1117319) | 0.57% of 260,000 active | TR-FRET GST-Vif / biotin-A3G peptide binding; higher % means a stronger effect; test concentration not given here; strong numbers were not always called active | inhibition, %; hits with a dose series show IC50 in µM;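 active means above the screen mean plus three standard deviations and confirmed in dose response; inconclusive means results disagree or hit not tested in dose response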;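 further: Vif residues 1-94 fused to GST binding biotinylated APOBEC3G peptide 110-148; 0% = full assay without inhibitor and 100% = GST in place of GST-Vif; retest series ran down from 100 µM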
# Ecoli rRNA inh = inhibits bacterial ribosomal RNA function over humanized ribosomes; E. coli WT GFP vs humanized-ribosome RFP mutants, fluorescence, 24 h; stronger effect = lower value; DMSO median 0, no signal -100; GFP signal change (wild-type ribosome), % (test concentration not listed); 1.6% of 350,000 active;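 active means significant combined selectivity score with lowered wild-type GFP, culture density cut under 30%, mutant RFP and density less affected; inactive means any of these conditions unmet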; further: one replicate is shown; some compounds called inactive have numbers as strong as hits
# AF4-AF9 inh = MLL-AF4/AF9 protein interaction inhibition | AlphaScreen, biotin-AF4 peptide binding to FLAG-AF9 | 0.47% of 350,000 active | inhibition, % at 10 µM | P42568;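 active means every replicate reaching a set inhibition limit, whatever the replicate mean, cut at about 25% in these data; inconclusive means mean inhibition reaches that limit but some replicates miss it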;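 further: 0% = plate neutral control median and 100% = total signal loss; the record names both 10 and 1 µM as test concentration; the first replicate is given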
# Target sequence (P42568 whole entry, looked up): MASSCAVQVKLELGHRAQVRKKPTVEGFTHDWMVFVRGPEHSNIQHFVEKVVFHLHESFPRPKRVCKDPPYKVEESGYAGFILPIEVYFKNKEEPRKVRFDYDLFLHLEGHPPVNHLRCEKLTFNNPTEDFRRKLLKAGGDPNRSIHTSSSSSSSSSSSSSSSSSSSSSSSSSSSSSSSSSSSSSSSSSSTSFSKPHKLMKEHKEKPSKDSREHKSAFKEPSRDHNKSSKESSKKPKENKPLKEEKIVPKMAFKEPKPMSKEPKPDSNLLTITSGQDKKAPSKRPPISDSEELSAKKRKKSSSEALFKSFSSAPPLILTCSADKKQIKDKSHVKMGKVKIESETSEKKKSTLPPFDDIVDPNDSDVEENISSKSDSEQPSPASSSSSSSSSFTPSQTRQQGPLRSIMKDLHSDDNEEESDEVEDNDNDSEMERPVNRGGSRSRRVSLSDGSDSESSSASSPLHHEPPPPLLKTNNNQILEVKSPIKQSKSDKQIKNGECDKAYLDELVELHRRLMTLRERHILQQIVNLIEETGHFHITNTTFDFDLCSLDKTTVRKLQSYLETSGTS
# Ecoli rRNA inh OD600 = further read-out of Ecoli rRNA inh, marked with its call; OD600 change, %; measured here: OD600 growth;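 optical density of the mix in the first replicate; 0 = DMSO median and -100 = no signal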
# Ecoli rRNA inh RFP = recorded beside Ecoli rRNA inh, whose call it bears; RFP signal change, %; measured here: RFP humanized mutant strains;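 first replicate; 0 = DMSO median and -100 = no signal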
# * marks the source's active call; other numbers are inactive results; ? = inconclusive; nt = no result given. These rows are one share of the data; the hit share may differ from the screen's.
SMILES,Calb FLC,T cruzi repl,RanGTP-Impb inh,Beta cell apopt,A1 inh,Vif A3G,Ecoli rRNA inh,Ecoli rRNA inh OD600,Ecoli rRNA inh RFP,AF4-AF9 inh
CCOC(=O)C1(Cc2ccccc2)CCCN(S(=O)(=O)N(C)C)C1 (stereo unspecified),-2,-1,-3.1,nt,1.0,nt,-7,-7,-1.2,0.1
COc1cc(OC)cc(-c2nnc(SCC(=O)N3CCOCC3)o2)c1,6,5,0.5,-4,-0.9,0%,nt,nt,nt,nt
COc1ccccc1NC(=O)CSCc1cc(=O)n2c(C)csc2n1,-6,10,2.3,-1,0.3,nt,3,3,-1.1,0.1
COC(=O)Cn1cnc2c(cnn2-c2ccc(C)cc2)c1=O,0,-12,-0.1,-5,0.9,2%,nt,nt,nt,nt
O=C(OCc1cc(=O)n2c(n1)sc1ccccc12)c1ccc(O)cc1O,0,9,0.1,3,-0.3,25%,-2,5,7.4,-7.3
Cc1cc(C)c(C#N)c(SCC(=O)NC2CC2)n1,-5,-22,2.8,1,-0.3,-5%,18,12,0.9,nt
Cc1cccc(-n2ccnc2SCC(=O)N2CCCc3ccccc32)c1C,-6,7,?,32,-0.1,nt,nt,nt,nt,nt
O=[N+]([O-])c1cc(O)c2ncccc2c1,105*,-18,1.4,nt,0.0,-2%,-41,-70,-12,-3.9
COc1ccc(NC(=O)CN(C)C(=O)CNC(=O)c2sc3ccccc3c2Cl)cc1,nt,nt,nt,6,-1.6,-11%,18,11,4.6,0.8
NC(=O)CSc1nnc(NC(=O)c2cccc(S(=O)(=O)N3CCCCC3)c2)s1,5,-17,-1.9,-1,0.6,0%,12,2,-1.7,0.2
Cc1[nH]c2ccc(C(=O)Nc3ccncc3)cc2c1C,3,-2,?,3,1.4,3%,-4,5,1.2,11
Cn1ncc(Cl)c1C(=O)N1CCN(c2ccc(F)cc2)CC1,nt,0,nt,-1,-0.3,nt,3,6,-0.6,-1.8
COc1ccc(CCNC(=O)C2CCN(C(=O)c3ccc(Br)cc3)CC2)cc1OC,-4,-16,-0.8,-4,-0.8,nt,-3,1,-0.9,0.7
Cc1nc2c(C#N)c(-c3ccc(Cl)cc3)ccn2n1,7,-12,1.6,0,0.6,0%,-9,-6,-1.8,0.1
CC(=C\c1ccccc1)/C=C1/SC(=O)N(CCCC(=O)Nc2ccc(C(=O)O)cc2)C1=O,-4,-14,-1.0,2,0.9,1%,-25,-35,-5.5,-1.4
Cc1nnc(SCCOC(N)=O)n1C,3,-18,0.2,nt,nt,4%,nt,nt,nt,nt
O=C(NCCc1ccccc1)c1ccc(NC2=NC3CS(=O)(=O)CC3S2)cc1 (stereo unspecified),-1,-1,-1.5,-9,0.1,0%,0,14,0.1,3.6
O=C(Nc1nnc(Cc2ccc([N+](=O)[O-])cc2)s1)c1ccc2c(c1)OCO2,-7,14,2.9,-5,0.1,5%,3,-2,-1.4,-2.0
CCSc1nnc(NC(=O)c2c(-c3ccccc3Cl)noc2C)s1,59,-9,2.3,-5,0.8,?,nt,nt,nt,nt
Cc1ccc(C(=O)N2CCCC2)cc1S(=O)(=O)Nc1cccc(C)c1C,0,22,0.7,-7,1.8,?,-18,-7,-8.8,-5.2
Cc1nnc(SCC(=O)Nc2ccc3c(c2)OCCO3)n1N,-4,10,2.9,-2,-0.3,-1%,nt,nt,nt,nt
O=C(OCCN1CCOCC1)c1ccc(Cl)cc1Cl,0,-10,0.9,-6,-0.1,-6%,8,1,0.2,-3.8
CC(=O)c1cc2c(cc1NC(=O)CN1CCCCCCC1)OCO2,4,6,4.1,nt,0.9,6%,nt,nt,nt,nt
COC(=O)c1cc(S(=O)(=O)N2CCN(c3ccccc3OC)CC2)cn1C,-1,0,-2.0,-1,0.1,nt,3,-6,2.4,-1.9
C=CCN(C)NC(=S)Nc1ccccc1,-1,-18,?,-4,-0.7,?,nt,nt,nt,nt

# Copied from the entries so far for reference:
SMILES,Calb FLC,T cruzi repl,RanGTP-Impb inh,Beta cell apopt,A1 inh,Vif A3G,Ecoli rRNA inh,Ecoli rRNA inh OD600,Ecoli rRNA inh RFP,AF4-AF9 inh
Cc1nnc(SCCOC(N)=O)n1C,3,-18,0.2,nt,nt,4%,nt,nt,nt,nt
O=C(NCCc1ccccc1)c1ccc(NC2=NC3CS(=O)(=O)CC3S2)cc1 (stereo unspecified),-1,-1,-1.5,-9,0.1,0%,0,14,0.1,3.6
O=C(Nc1nnc(Cc2ccc([N+](=O)[O-])cc2)s1)c1ccc2c(c1)OCO2,-7,14,2.9,-5,0.1,5%,3,-2,-1.4,-2.0
CCSc1nnc(NC(=O)c2c(-c3ccccc3Cl)noc2C)s1,59,-9,2.3,-5,0.8,?,nt,nt,nt,nt
Cc1ccc(C(=O)N2CCCC2)cc1S(=O)(=O)Nc1cccc(C)c1C,0,22,0.7,-7,1.8,?,-18,-7,-8.8,-5.2
Cc1nnc(SCC(=O)Nc2ccc3c(c2)OCCO3)n1N,-4,10,2.9,-2,-0.3,-1%,nt,nt,nt,nt
O=C(OCCN1CCOCC1)c1ccc(Cl)cc1Cl,0,-10,0.9,-6,-0.1,-6%,8,1,0.2,-3.8
CC(=O)c1cc2c(cc1NC(=O)CN1CCCCCCC1)OCO2,4,6,4.1,nt,0.9,6%,nt,nt,nt,nt
COC(=O)c1cc(S(=O)(=O)N2CCN(c3ccccc3OC)CC2)cn1C,-1,0,-2.0,-1,0.1,nt,3,-6,2.4,-1.9

# Additional records follow:
SMILES,Calb FLC,T cruzi repl,RanGTP-Impb inh,Beta cell apopt,A1 inh,Vif A3G,Ecoli rRNA inh,Ecoli rRNA inh OD600,Ecoli rRNA inh RFP,AF4-AF9 inh
COC(=O)C1=C(C(=O)OC)[C@@H]2N(Cc3ccccc3)c3ccccc3[C@@]23C[C@@H](C(=O)OC)N=C3N1,-8,-21,2.8,-4,1.8,nt,-1,-1,-0.7,0.5
Cc1nc2ccccn2c1C(=O)N/N=C/c1ccc(F)cc1,-7,-6,1.9,-13,-0.3,nt,-4,-2,-1.4,-1.5
CCOC(=O)CC1ON(C)C(=O)N1c1ccc(Cl)cc1Cl (stereo unspecified),8,10,1.6,-15,0.0,6%,nt,nt,nt,nt
Cc1cc(S(=O)(=O)Nc2cccc(O)c2)c(C)s1,-3,-5,2.6,-6,-0.5,14%,nt,nt,nt,nt
C=C(C)COc1ccc(-c2ncnc(C(F)(F)F)c2-c2ccccc2)c(O)c1,5,6,-2.1,5,0.0,-8%,3,3,0.7,-1.1
CCN(CC(=O)Nc1ccccc1C(F)(F)F)C(=O)C1CCC1,0,3,nt,-7,1.3,-1%,10,9,7.9,-13
O=S(=O)(NCC(c1ccco1)N1CCN(c2ccc(F)cc2)CC1)c1ccc2c(c1)OCCO2 (stereo unspecified),114*,-1,2.3,1,-0.2,10%,nt,nt,nt,nt
CC(=O)c1ccc(N2CCN(C(=O)c3ccc(Cn4c(=S)[nH]c5ccc(N6CCOCC6)cc5c4=O)cc3)CC2)cc1,7,70*,2.7,3,-0.7,-4%,0,17,-2.4,-2.2
CCOc1ccc(NS(=O)(=O)c2ccc(C(=O)N3CC(C)OC(C)C3)cc2)cc1 (stereo unspecified),nt,nt,nt,4,0.4,?,8,-1,0.7,8.1
COc1ccc(F)cc1C(=O)C1CCCN(Cc2c[nH]c3ccccc23)C1 (stereo unspecified),?,48,0.2,-3,0.9,-2%,6,2,0.1,6.0
COc1ccc(F)cc1C(=O)C1CCCN(C(=O)CCN2CCCCO2)C1 (stereo unspecified),-4,7,0.0,-2,0.1,3%,0,8,7.2,2.5
CC(=O)N1N=C(c2ccc([N+](=O)[O-])cc2)CC1c1ccccc1Cl (stereo unspecified),-5,10,1.9,-1,0.9,nt,-15,-7,0.7,9.5
CCCCOC(=O)/C(=C\c1ccc([N+](=O)[O-])o1)NC(=O)c1ccccc1,4,39,-0.7,-8,0.5,-4%,nt,nt,nt,nt
NC(=O)NNC(=S)Nc1cccc2ccccc12,-1,-15,-0.2,-3,-0.6,-20%,-4,-8,3.4,-0.7
Cc1nc2ccccc2nc1OCC(=O)Nc1ccccc1,4,-5,2.5,-2,-1.0,2%,12,14,1.0,-3.3
O=C(NCCC(c1ccccc1)c1ccco1)c1cccs1 (stereo unspecified),4,3,2.0,2,-0.9,2%,-18,-11,-7.8,0.4
O=C(Nc1nnc(SCc2ccc(Cl)cc2)s1)c1cnccn1,80*,-17,-0.1,-6,0.5,7%,-22,-23,-16,0.3
CN1CCCN(C(=O)CSc2ccccc2)CC1,10,-5,0.3,4,0.1,nt,8,11,1.3,-1.7
Cc1cc(C)nc(-n2nc(C)c(Sc3ccc(F)cc3)c2N)n1,-28,58*,-6.8,41,-3.7,18%,-40*,-18*,-13*,2.0
Cc1ccccc1-n1c(SCC(=O)N2CCOCC2)nc(O)cc1=O,0,-12,1.6,-3,0.5,-6%,8,4,-6.5,3.8
Cc1cc(C(F)(F)F)nc(NCc2ccc(F)cc2)n1,5,3,0.2,-17,0.3,-8%,nt,nt,nt,nt
CC(=O)NC1(C(F)(F)F)C(=O)Nc2c1c(=O)[nH]c(=O)n2-c1ccccc1 (stereo unspecified),-7,12,-3.6,-1,1.1,6%,6,17,3.5,9.6
CCc1ccc2nc(NC(=O)Cn3cnc4ccccc4c3=O)sc2c1,6,2,2.2,5,0.6,0%,-2,4,-0.9,3.5
O=C(Nc1ccccc1)O/N=C1/CCCc2occc21,-4,-1,3.4,0,-0.7,-5%,1,5,-2.3,-0.4
Cc1ccc(NC(=O)CN(C)Cc2ccc(F)cc2)c([N+](=O)[O-])c1,17,3,5.0,0,0.2,nt,nt,nt,nt,nt
Nc1cc(C(=O)N/N=C/c2cccc([N+](=O)[O-])c2)n[nH]c1=O,-2,6,-2.4,5,0.5,-12%,14,7,0.2,7.3
COc1ccc(CC(=O)OCC(=O)NCC2CCCO2)cc1OC (stereo unspecified),nt,nt,nt,-4,1.1,4%,4,12,-3.6,-0.9
CCn1nc(C(=O)O)c(=O)c2cc3c(cc21)OCO3,5,-12,-3.1,-12,0.4,nt,nt,nt,nt,8.3
